Screens: PubChem, National Center for Advancing Translational Sciences (NCATS)
HSD17B inhib – blocks hydroxysteroid 17-beta dehydrogenase activity. Q99714. recombinant HSD17B10, NADH fluorescence kinetic; many of its hits are not listed in these tables. Potency, µM (doses to about 57.1 µM), for inactives: at the top dose activity change, negative = inhibition, actives largely listed as inhibitors. 7.6% of 75,000 active. AID 893; active = well fitted inhibition curve with a large enough effect; inconclusive = small, poorly fitted or top-dose-only effect; inactive = no such curve, though single readings can be large or run the other way;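 also: the protocol describes HADH2 (HSD17B10) and not the HSD17B4 of the title; nearly all actives have a fitted effect of over 70% in size; most hits overshoot -100% by far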
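His-tagged E. coli-expressed HADH2 at 20 nM in 100 mM Tris-HCl pH 9.0 with 0.01 % Tween-20, preincubated 15 min with compound at room temperature. Reaction with 1 mM NAD+ and 90 uM beta-hydroxybutyryl coenzyme A; NADH fluorescence (360/450 nm) read kinetically over 4 min, last minus first point.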
* = called active by the depositor; ? = inconclusive; & = joins results of further samples; [ ] = dose if it differs, or a comment. % is scaled to controls: 0 for no effect and ±100 for the full control effect; potency is read from the fitted curve at half-maximal effect. Only part of the results is shown (hit frequency here may not be typical).

Compound | HSD17B inhib
Cc1c(C(=O)NCCCN2CCCC2=O)oc2ccccc12 | 0%
COc1ccc(-c2nc(CSCC(=O)N3CCN(C(=O)c4ccco4)CC3)c(C)o2)cc1OC | 5%
CC(=O)N1CCC2(CC1)CCN(C(=O)Nc1cccc(C#N)c1)CC2 | 0%
CCOC(=O)C1CCN(C(=O)CCNC(=O)Cn2ccc3ccccc3c2=O)CC1 | -14%
CCc1nnc(NC(=O)CCC(=O)N2CCN(Cc3cc(F)ccc3OC)CC2)s1 | ?
COc1ccc(CSc2nncn2N)cc1Br | 12%
CCCCOCCCNC(=O)c1ccc(NC(C)=O)cc1 | -3%
CCC(=O)O[C@H](CC(=O)O)C[N+](C)(C)C | 3%
CSc1nc(C)cc(OCC(=O)N2CCOCC2)n1 | 6%
O=C(CCN1CCCCCC1)Nc1ccc(F)c(F)c1 | 3%
CC1CCN(c2nnc(N3CCC(C)CC3)c3ccccc23)CC1 | 2%
CCOC(=O)N1CCC(NC(=O)COc2cc(=O)n(C)c3ccccc23)CC1 | 2%
CSc1nc(-c2ccco2)nn1C(=O)c1ccco1 | -3%
Cc1cc(NCCCN2CCOCC2)n2ncc(-c3ccc(Cl)cc3)c2n1 | 20µM*
COC(=O)CNC(=O)c1cn(CC(C)C)c(=O)c2cc(OC)c(OC)cc12 | -12%
CC1CCN(C(=O)CSc2nnc(CNC(=O)COc3ccc(Cl)cc3)o2)CC1 | -3%
Cc1ccn2c(-c3csc(NCc4ccco4)n3)c(C)nc2c1 | ?
CN=C1c2ccccc2CN1c1cccc(C(=O)OC)c1 | 15%
O=C(O)c1cc(O)c2c(c1)C(=O)c1cc(O)cc(O)c1C2=O | -15%
COCCn1nnnc1C(c1cc2ccc(OC)cc2[nH]c1=O)N1CCN(C2CCCCC2)CC1 (stereo not drawn) | -17%

Two entries from above in another layout:
smiles: O=C(CCN1CCCCCC1)Nc1ccc(F)c(F)c1
  HSD17B inhib: 3%
smiles: CC1CCN(C(=O)CSc2nnc(CNC(=O)COc3ccc(Cl)cc3)o2)CC1
  HSD17B inhib: -3%

Remaining list, next part
Compound | HSD17B inhib
COc1ccccc1N1CCN(C(c2cc3cc(C)ccc3[nH]c2=O)c2nnnn2C2CCCC2)CC1 (stereo not drawn) | -20%
O=C(Nc1ccccc1)N1CC[C@@]2(CCCN(C(=O)c3ccco3)C2)C1 | -5%
O=C(Cn1ncc2c(=O)oc3ccccc3c21)NCCN1CCN(c2ccccc2F)CC1 | 5%
C=CCNC(=O)CN(c1ccc(F)c(Cl)c1)S(C)(=O)=O | 1%
COC(=O)C1C(=O)c2c([nH]c(C(=O)OC3CCCCCC3)c2C)CC1C (stereo not drawn) | 2%
O=C(OCC(=O)N1CCOCC1)c1ccc2c(c1)OCCO2 | 12%
COC(=O)c1cccc(C23CC4(C2)[C@H](CN(Cc2cccnc2)[C@@H]4c2ccccc2)C3c2ccccc2)c1 (stereo partly drawn) | -6%
CCOC(=O)CC(=O)c1cc(OC)c(OC)c(OC)c1 | -7%
CC1CCCC(N2CCN(C(=O)c3ccc(F)cc3)CC2)C1 (stereo not drawn) | 2%
COc1ccccc1-c1c(NC(=O)c2ccco2)n(-c2ccccc2)nc(C)c1=O | -1%
O=C(CSc1nnc(Cn2c(=O)sc3ccccc32)n1-c1ccccc1)Nc1nccs1 | ?
CCOc1ccccc1N1C(=O)CC(Nc2ccc(N3CCOCC3)cc2)C1=O (stereo not drawn) | -11%
O=C(O)c1cc(-c2ccc(-c3ccc(-c4cc(C(=O)O)c5cc(Cl)ccc5n4)cc3)cc2)nc2ccc(Cl)cc12 | 3.2µM*
O=C(Nc1ccc(-c2noc(CCc3ccccc3)n2)cc1)c1cccnc1 | ?
O=C(CCCCn1c(=O)c2ccccc2n(Cc2ccc(F)cc2)c1=O)NCc1ccco1 | -2%
O=C(NCCN1CCOCC1)NC1(C(F)(F)F)Oc2ccc(Cl)cc2O1 (stereo not drawn) | -24%
CN(c1cccc(NC(=O)Nc2cccc(Cl)c2)c1)S(C)(=O)=O | -2%
CCCn1c(C(O)c2cc(OC)ccc2OC)nc2ccccc21 (stereo not drawn) | 0%
COc1cccc(-c2nc(=S)c3c(n2Cc2ccco2)CCCC3)c1 | -20%
CC(C(=O)NCC1(c2ccccc2)CCCC1)N1CCOCC1 (stereo not drawn) | 4%

The closing 2 records of the part above are carried over, then new ones follow.
Compound | HSD17B inhib
COc1cccc(-c2nc(=S)c3c(n2Cc2ccco2)CCCC3)c1 | -20%
CC(C(=O)NCC1(c2ccccc2)CCCC1)N1CCOCC1 (stereo not drawn) | 4%
Cc1ccc(-c2nnc(CSc3nc(C)nc4sc(C)c(C)c34)o2)cc1 | 12%
CCOC(=O)C1=C(C)NC(C)=C(C(=O)OCC)C1c1ccc(OC)cc1 | ?
CC1CCN(C(=O)CSc2ccc(-c3ccc(F)cc3)nn2)CC1 | -1%
CCNC(=O)COc1ccc2ccccc2c1 | 10%
CCOC(=O)c1cccc(NC(=O)C2CCC(CNc3c(N4CCOCC4)c(=O)c3=O)CC2)c1 (stereo not drawn) | 5%
O=S(=O)(c1ccc(Cl)c(C(F)(F)F)c1)N1CCN(CC(O)COCC2CCCO2)CC1 (stereo not drawn) | 1%
c1ccc(C(c2nnnn2C2CCCCC2)N2CCc3ccccc3C2)nc1 (stereo not drawn) | 32µM*
Cc1noc(C)c1S(=O)(=O)N(CC(=O)N1CCCCCC1)c1ccc(C(C)C)cc1 | 5%
OC(Cc1cccnc1)(c1ccccc1)c1ccccc1 | 0%[11.4 µM]
COc1cccc(NC2CC(=O)N(CCc3ccccc3)C2=O)c1 (stereo not drawn) | 12%
O=C(c1sccc1-n1cccc1)N1CCCC1 | 15%
O=C(C(F)C(F)(F)F)N1CCN(c2ccccc2)CC1 (stereo not drawn) | 2%
COC(=O)CSc1nnc(CNc2ccc(Cl)cc2)n1Cc1ccccc1 | -7%
COc1ccc(-c2nnc3ccc(SCC(=O)N4CCN(c5ccccc5)CC4)nn23)cc1 | -11%
Cc1ccc(S(=O)(=O)N2CCN(C)CC2)cc1-c1nnc2c3ccccc3c(C)nn12 | -1%
CCOC(=O)CCc1c(C)nc2cc(-c3ccc(Cl)cc3)[nH]n2c1=O | -2%
O=C(CC1Oc2ccc(Cl)cc2NC1=O)NC1CCCCCC1 (stereo not drawn) | 0%
N[C@H](C(=O)O)C(O)C(O)C(O)CO (stereo partly drawn) | -7%
CCCCCOC(=O)c1[nH]c2c(c1C)C(=O)C(C(=O)OC)C(C)C2 (stereo not drawn) | -8%
O=C(Nc1ccccc1C(=O)N1CCCCCC1)c1cccc(S(=O)(=O)N2CCOCC2)c1 | 11%
CC(=O)NC1(c2ccccc2)CCN(c2nc(C)cc(C)n2)CC1 | 25µM*
CCOC(=O)c1ccccc1NC(=O)c1c(F)c(F)c(F)c(F)c1F | -2%
CC(=O)Cc1nsc(NC(=O)c2ccccc2)n1 | 2%
CCOC(=O)N1CCN(CC(=O)N2c3ccccc3CC2C)CC1 (stereo not drawn) | 7%
O=C(C1CCC1)N1CCc2cc(S(=O)(=O)NCc3cccnc3)ccc21 | 1%
CCN1CCN(c2cc(C)c3cc(NC(=O)Cc4ccc(OC)c(OC)c4)ccc3n2)CC1 | 32µM*
CCOC(=O)c1oc2cccc(OC(C)=O)c2c1C | 20µM*
COC(=O)c1ccccc1NC(=O)CN1CCN(C(=O)c2ccco2)CC1 | -16%
N=C(N)S[C@H]1c2ccccc2-c2cc([N+](=O)[O-])ccc21 | -3%[11.4 µM]
c1ccc(SSc2ccccc2)cc1 | -3%
CCN1C(=O)C=CC1=O | 4%
CC(=O)c1c(N2CCOCC2)nc(=S)n(Cc2ccccc2)c1C | 6%
CC1=C(C(=O)NCc2ccccc2)C(c2cccnc2)n2ncnc2N1 (stereo not drawn) | 15%
COc1ccccc1OCCSc1nnc(C)n1-c1ccccc1 | -9%
CCOC(=O)N1CCN(C(=O)c2cnn3c(C)c(Cc4ccc(C)cc4)c(C)nc23)CC1 | 16µM*
CC(C)CC(OC(=O)c1cccs1)C(=O)NCc1cccs1 (stereo not drawn) | -4%
COc1ccc(N2CCN(c3nc4c(c(=O)n(C)c(=O)n4C)n3Cc3ccccc3)CC2)cc1 | -5%
CCCC(=O)Nc1c2c(nn1-c1ccc(C)cc1C)CSC2 | 1%
CC1CCC2C(=O)N3C(CCC(C)[C@@H]3c3cccc(N4CCOCC4)c3)C(=O)N2C1c1cccc(Br)c1 (stereo partly drawn) | 2%[11.4 µM]
N#CC1=C(N)N(c2ccccc2)C(c2ccco2)C1(C#N)C#N (stereo not drawn) | ?
Cc1cnc(CNc2ncncc2-c2ccccc2Cl)cn1 | 0%
CCN(CC)S(=O)(=O)c1ccc(C(=O)OCC(=O)N2CCN(C(=O)c3ccco3)CC2)cc1 | 6%
CC1(C)C(=O)Nc2ccccc2N1C(=O)COC(=O)C12CC3CC(CC(O)(C3)C1)C2 | -7%
CCCCCCc1c(C[C@H](N)C(=O)O)o[nH]c1=O | 4%&-4%
O=C(c1cc(-c2ccc3c(c2)OCO3)on1)N1CCN(c2ccc(F)cc2)CC1 | -12%
O=C(COc1ccccc1)c1cn(CC(=O)N2CCOCC2)c2ccccc12 | 9%
CCCOc1ccc(NC2=CC(=O)CC(C)(C)C2)cc1 | -4%
CC(C)N(C(=O)CSc1nnc(CN2CCCCCC2=O)n1-c1ccccn1)C(C)C | 1%
CCC(C)C(=O)Nc1cc(OC)c(OC)cc1C(=O)O (stereo not drawn) | -2%
COc1cc(C(=O)N2CCC(NC(=O)C(Cc3ccccc3)NC(C)=O)CC2)cc(OC)c1OC (stereo not drawn) | 9%
CCOC(=O)c1cc2occc2n1CC(=O)NC1CCCCC1C (stereo not drawn) | 5%
COc1ccc(C(=O)NCCn2ccc3ccccc32)cc1 | -8%
C=CCSc1nnc(NC(=O)CSc2ccccn2)s1 | 11%
COc1cccc(C(=O)Nc2nc(-c3ccc(S(=O)(=O)N4CCOCC4)cc3)cs2)c1 | ?
COc1cccc(-c2cc(NCc3cccnc3)ncn2)c1 | ?
NC(N)=Nc1ccc(-c2ccc(N=C(N)N)cc2)cc1 | -2%[11.4 µM]
CCn1c2ccccc2c2cc(CN3CCN(C(=O)c4ccco4)CC3)ccc21 | -18%
CCC(C)NC(=O)CCCCCn1c(=O)[nH]c2cc(OC)c(OC)cc2c1=O (stereo not drawn) | 20µM*
[O-][n+]1onc2c1CCc1nnccc1-2 | 4%
O=C(CCCn1c(=O)oc2ccccc21)Nc1cccnc1 | 11%

Next entries.
Compound | HSD17B inhib
CCOC(=O)N1CCC2(CC1)CC(=O)c1c(ccc3oc(C(=O)O)c(C)c13)O2 | 32µM*
COC(=O)c1oc2ccc(Br)cc2c1NC(=O)c1ccccc1 | ?
COC(=O)c1ccccc1NC(=O)CSc1ccccn1 | -7%
O=C(c1cccc(S(=O)(=O)NCCOc2ccccc2)c1)N1CCN(c2ncccn2)CC1 | -2%
Cc1oc(-c2ccccc2)nc1C(=O)OCC(=O)NC(=O)NCC(C)C | -4%
NC(=O)Cn1c(S(=O)(=O)Cc2ccccc2)nc2ccccc21 | 5%
CCSc1nnc(NC(=O)C2CC=CCC2C(=O)O)s1 (stereo not drawn) | -4%
COc1ccc(-c2nc(CS(=O)(=O)CC(=O)Nc3ccc(Cl)cc3)c(C)o2)cc1 | ?
O=C1CC(N2CCC(C(=O)N3CCCCC3)CC2)C(=O)N1 (stereo not drawn) | -6%
COc1ccc(NC(=O)CN(c2ccc(C)cc2)S(C)(=O)=O)c(OC)c1 | 2%
CN(C)C(=O)c1ccc(-c2nccc(NCc3cccnc3)n2)cc1 | -3%
CCCN(CC1CC1)c1nc(C)nc(Nc2c(Cl)cc(Cl)cc2Cl)c1Cl | -5%
CCS(=O)(=O)Nc1ccc2c(c1)N(C(C)=O)c1ccccc1CC2 | -23%
COc1ccc(CNc2nc3nc(-c4ccccc4)cc(=O)n3[nH]2)cc1OC | ?
NS(=O)(=O)c1cc2c(cc1Cl)N[C@@H](CC1CCCC1)NS2(=O)=O | -3%[25.6 µM]
COc1ccccc1-n1c(SCC(=O)N2CCCC2)nc2cccnc21 | -1%
COc1ccc(OC)c(CCNC(=O)CS(=O)(=O)Cc2nc(-c3ccccc3C)oc2C)c1 | -4%
Cn1c(=O)c2c(ncn2CC(=O)Nc2nnc(Cc3ccccc3)s2)n(C)c1=O | ?
COc1ccccc1C1C2CCCCC2(O)CCN1CC(=O)Nc1ccccc1 (stereo not drawn) | -2%
Cn1c(=O)[nH]c(=O)c2c1nc(SCCN1CCOCC1)n2Cc1ccccc1 | 6%
CC(C)(C)C(=O)CN1CCN(S(=O)(=O)c2ccc(F)cc2)CC1 | 3%
COc1ccc(C(CC(=O)NC(C)(C)C)n2cccc2)cc1 (stereo not drawn) | 13%
O=c1cc(-c2ccccc2)oc2c1ccc1ccccc12 | 32µM*
COc1ccc(C(=O)N2CCC3(CCN(Cc4cc(C(F)(F)F)cc(C(F)(F)F)c4)CC3)CC2)cc1 | -10%
